Mtb growth: Mycobacterium tuberculosis H37Rv growth inhibition, putative kinase inhibitor library, confirmatory dose response (AID 2842). M. tuberculosis H37Rv growth inhibition; higher % means a stronger effect; some inactives read as strong as hits. one-dose inhibition, % at 10 µg/mL; IC90 in µg/mL for titrated hits. actives 5.2% (n = 24,000);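 active = confirmed in a dose series; inconclusive = mostly over 85% at the one dose but not retested; inactive = below 85% or not confirmed; about a fifth of its hits are not listed in these tables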;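 also: bacteria incubated one week before Alamar blue readout; 0% = bacteria only wells and 100% = bacteria with high antibiotic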
Active calls of the source: *; ? = inconclusive. Some of the compounds tested (hit frequency here may not be typical).

SMILES	Mtb growth
N#C/C(=C\Nc1ccccc1)c1nc2ccccc2[nH]1	3.2µg/mL*
N#Cc1c(NC(=O)c2c(F)cccc2F)sc2c1CCC2	1%
Cc1nnc(NC(=O)c2cccn(OCc3ccc(F)cc3)c2=O)s1	2%
CCOC(=O)c1c(NC(=O)c2ccco2)sc(Cc2ccc3c(c2)OCO3)c1C	-12%
CSc1cccc(NC(=O)CN2N=NC3C(=O)N(c4ccc(F)c(Cl)c4)C(=O)C32)c1 (stereo not given)	-6%
O=C(Nc1nc(-c2cccnc2)cs1)c1coc2ccccc2c1=O	45%
COc1cccc(NC(=O)c2oc3ccccc3c2NC(=O)CCCCl)c1	3%
CCc1ccc(S(=O)(=O)c2cn(Cc3cccc(F)c3)c3ccc(OC)cc3c2=O)cc1	33%
Cc1cc(NC(=O)CCN2C(=O)/C(=C\c3ccco3)SC2=S)no1	-6%
Cc1cc(NC2CCCCC2)n2ncc(-c3ccccc3)c2n1	11µg/mL*
O=C1c2cccc3cccc(c23)C(=O)N1CCCc1n[nH]c(=S)n1-c1ccccc1	5%
COc1ccc(-n2c(C)cn3c4c(=O)n(C(C)C(C)=O)c(=O)n(C)c4nc23)c(OC)c1 (stereo not given)	-6%
COc1ccc2nc(Nc3nc4c(s3)C(=O)CC(C)(C)C4)sc2c1	16µg/mL*
Cc1nnc(SCC(=O)N2CCN(c3ccccc3)CC2)[nH]c1=O	-14%
CCOCC(=O)Nc1c(C(=O)Nc2cc(OC)ccc2OC)oc2ccccc12	1%
CC(C)(C)NC(=O)CN1C(=O)/C(=C/c2ccccc2)SC1=S	-1%
O=C(Nc1c(C(=O)Nc2ccc([N+](=O)[O-])cc2)oc2ccccc12)c1ccc(F)c(F)c1	8%
CCOC(=O)c1nn(-c2ccc(F)cc2)c(=O)c2c(NC(=O)/C=C/c3ccc(OC)c(OC)c3)scc12	3%
CCOC(=O)c1nn(-c2ccc(C)cc2)c(=O)c2c(NC(=O)c3ccc(C)c(C)c3)scc12	10%
O=C(Nc1ccc2c(c1)OCCO2)c1cnc2n(c1=O)CCS2	-5%
Cc1cc(S(=O)(=O)n2ccnc2)ccc1F	11%
O=C(CSc1nnc2ccc(-c3cccnc3)nn12)c1ccc(Cl)cc1	-6%
O=C1c2ccccc2C(=O)c2cc(S(=O)(=O)N3CCN(c4ccccn4)CC3)ccc21	0%
COc1cccc(NC(=O)c2cc3c(=O)n4ccccc4nc3n(CC(C)C)c2=N)c1	8%
CCC(C)Sc1nc2c(c(=O)[nH]c(=O)n2C)n1CCc1ccccc1 (stereo not given)	18%
SMILES	Mtb growth
CCCC(CCC)C(=O)NCCc1cc2c(C)ccc(C)c2[nH]c1=O	6%
O=C(NCc1ccccc1)c1cnc2n(c1=O)CCS2	-11%
CN(C(=O)COc1ccc(Cl)cc1Cl)c1nnc(C23CC4CC(CC(C4)C2)C3)s1	-1%
COc1cc(OC)c(OC)cc1/C=N/NC(=O)Cn1cnc2ccccc21	-7%
Cc1cccc(C(=O)Nc2ccc(S(=O)(=O)Nc3onc(C)c3C)cc2)c1	-2%
COc1cccc(C(=O)NNc2nc3c(OC)cccc3s2)c1	8%
O=C(CSc1nc2c(oc3ccccc32)c(=O)n1-c1ccccc1)Nc1cccc(F)c1	9%
Cc1ccnc(SCCn2c(N3CCCC(C)C3)nc3c2c(=O)[nH]c(=O)n3C)n1 (stereo not given)	3%
Cc1cccc(-n2c(C)cn3c4c(=O)[nH]c(=O)n(C)c4nc23)c1C	-3%
O=C(Nc1nc(-c2ccccc2)c(C(=O)c2ccccc2)s1)c1ccc(-c2ccccc2)cc1	0%
COC(=O)c1ccc(COc2coc(CN3c4ccccc4CC3C)cc2=O)cc1 (stereo not given)	84%
O=C1CC(N(O)c2ccccc2)C(=O)N1Cc1ccccc1 (stereo not given)	-10%
CCCn1c(SCc2ccc(Cl)cc2)nc2c1c(=O)[nH]c(=O)n2C	70%
COc1ccc(-n2c(=O)[nH]c3c(C(N)=O)nc(-c4ccc(Br)cc4)nc32)cc1	-7%
CS(=O)(=O)c1ccc(Sc2nc3ccccc3s2)c([N+](=O)[O-])c1	?
O=C(CSc1ccc2nnc(CCNC(=O)c3ccc(F)cc3)n2n1)Nc1ccc(Cl)cc1	4%
COc1ccc(OC)c(-c2csc(NC(=O)c3ccc4ccccc4c3)n2)c1	33%
Cc1ccc(NC(=O)CSc2nnc3ccc(-c4ccco4)nn23)cc1F	-9%
CCC(=O)Nc1ccc(S(=O)(=O)N2CCC(c3nc4ccccc4[nH]3)CC2)cc1	32%
CC1(C)COCN1S(=O)(=O)c1ccc(C(=O)Nc2nnc(-c3ccc(F)cc3)o2)cc1	23µg/mL*
COc1cccc(NC(=O)Cn2cc(S(=O)(=O)c3ccc(C)c(C)c3)c(=O)c3cc(F)ccc32)c1	20%
COC(=O)c1sc2ncn(CC(=O)Nc3cccc(Cl)c3)c(=O)c2c1C	-5%
CCCS(=O)(=O)NC1CC(=O)N(c2ccc(OC)cc2)C1 (stereo not given)	2%
Cc1ccc(NC(=O)CC2Nc3cccc4cccc(c34)NC2=O)cc1 (stereo not given)	62µg/mL*
CC(C)N(Cc1ccccc1)c1ncnc(N)c1[N+](=O)[O-]	2%

5 successive records from above, quoted:
SMILES	Mtb growth
CCCn1c(SCc2ccc(Cl)cc2)nc2c1c(=O)[nH]c(=O)n2C	70%
COc1ccc(-n2c(=O)[nH]c3c(C(N)=O)nc(-c4ccc(Br)cc4)nc32)cc1	-7%
CS(=O)(=O)c1ccc(Sc2nc3ccccc3s2)c([N+](=O)[O-])c1	?
O=C(CSc1ccc2nnc(CCNC(=O)c3ccc(F)cc3)n2n1)Nc1ccc(Cl)cc1	4%
COc1ccc(OC)c(-c2csc(NC(=O)c3ccc4ccccc4c3)n2)c1	33%

(next part)
SMILES	Mtb growth
O=C(Nc1ccc2c(c1)OCO2)c1oc2ccccc2c1NC(=O)c1c(F)cccc1Cl	2%
CCN(CC)C(=O)CSc1nc(N)c(NC(=O)c2ccc(Br)cc2)c(=O)[nH]1	-8%
COc1cccc2c(=O)n(CC(=O)Nc3ccc(C(F)(F)F)cc3)ccc12	-7%
CCOC(=O)c1c(NC(=O)CCSc2nc3sc(C)c(C)c3c(=O)[nH]2)sc(C)c1C	-3%
NC(=O)c1c(NC(=O)COc2ccc(Cl)cc2)sc2c1CCCCC2	-3%
Cc1cccc(NS(=O)(=O)c2ccc3[nH]c(=O)cc(C)c3c2)c1	-2%
COc1cc(Br)cc2c1Oc1nc(-c3ccccc3O)[nH]c(=O)c1C2	-15%
CCOC(=O)c1sc(Nc2nc3c(F)cccc3s2)cc1C	8%
CCOc1cc(-c2nnc(NC(=O)c3ccc(Cl)s3)o2)cc(OCC)c1OCC	82%
O=C(CSc1ccc2nnc(-c3cccs3)n2n1)Nc1ccc([N+](=O)[O-])cc1	-3%
CSc1nc2ccc3nc(NC(=O)c4ccc(Cl)cc4)sc3c2s1	5%
COc1ccc(Cl)c2sc(N3CCN(C(=O)c4cc([N+](=O)[O-])ccc4Cl)CC3)nc12	-13%
COc1ccc(C(=O)Nc2ccc3c(c2)N(C(=O)C2CC2)CCC3)cc1	48%
Cn1c(=O)[nH]c(=O)c2c1nc(N1CCN(Cc3ccc(Cl)cc3)CC1)n2CCc1ccccc1	-7%
CCc1nnc(NC(=O)/C=C/c2ccccc2)s1	-1%
COc1ccc(C)c2sc(N3CCc4ccccc4C3)nc12	11µg/mL*
COc1cccc(NC(=O)CSc2[nH]c(=O)ncc2C)c1	-7%
Cn1c(=O)c2c(nc(CN3CCOCC3)n2CC(=O)C(C)(C)C)n(C)c1=O	-4%
O=C(O)C1CCCN(S(=O)(=O)c2ccccc2[N+](=O)[O-])C1 (stereo not given)	2%
C=C(C)Cn1c(SCC(=O)Nc2ccccc2)nc2c1c(=O)[nH]c(=O)n2C	1%
CCCc1cc(=O)[nH]c2nnc(SC(C)C(=O)OC)n12 (stereo not given)	1%
O=C(CSc1nnc2ccc(-c3cccnc3)nn12)NCc1ccccc1Cl	-16%
COc1ccc2nc(-c3ccc(C)c(NC(=O)c4cccc(C)c4)c3)cn2n1	-6%
CC(C)c1ccc(-c2csc(NC(=O)c3ccc4c(c3)OCCO4)n2)cc1	3.4µg/mL*
Oc1ccc(Nc2ncnc3scc(-c4ccccc4)c23)cc1	-1%
SMILES	Mtb growth
Cc1ccccc1NC(=O)CSc1nnc(C)c(=O)n1N	59%
Cc1ccc2nc(NC(=O)CSc3ncnc4c3oc3ccccc34)sc2c1	-7%
Cc1cccc(CC(=O)Nc2c3c(nn2-c2cccc(Cl)c2)CS(=O)C3)c1 (stereo not given)	-4%
CCOC(=O)c1nn(-c2ccc(OC)cc2)c(=O)c2c(NC(=O)c3ccccc3C(F)(F)F)scc12	0%
O=C(Nc1nnc(-c2cccc([N+](=O)[O-])c2)s1)c1ccc(Cl)cc1	6%
CSc1nnc(C)c(=O)n1COC(=O)c1ccc2ccccc2c1	3.4µg/mL*
COc1ccccc1Cn1cc2c(-c3ccc(C)cc3)nnc-2c2cc3c(cc21)OCCO3	15%
CCCCCn1c(=S)[nH]c2cc(C(=O)NCc3ccc4c(c3)OCO4)ccc2c1=O	-11%
Cn1c(=O)c2c(SCc3ccccc3F)nc(-c3cccs3)nc2n(C)c1=O	-4%
Cc1ccc(C(=O)Nc2nc(-c3ccc4c(c3)OCCO4)cs2)c(C)c1	55%
COc1cccc(NC(=O)c2oc3ccccc3c2NC(=O)c2ccccc2Br)c1	-1%
CCCn1c(=S)[nH]c2cc(C(=O)N3CCN(c4ccccc4OC)CC3)ccc2c1=O	-3%
O=C(Nc1sc2c(c1-c1nc3ccccc3s1)CCCC2)c1cccc2ccccc12	-4%
Cc1ccc(-n2cc(-c3ccccc3)[nH]c2=O)cc1F	1%
COC(=O)C1CCN(C(c2cccc(C)c2)c2sc3nc(C)nn3c2O)CC1 (stereo not given)	3%
Cc1sc(NC(=O)/C=C/c2ccco2)c(C(N)=O)c1C	2%
C/C(=N\NC(=O)c1cc(C2CC2)[nH]n1)c1ccc(Br)cc1	-2%
O=C1N/C(=N\c2ccccn2)SC1Cc1ccc(Br)cc1 (stereo not given)	-3%
Nc1c(C(=O)NCc2ccccc2)sc2nc3c(c(-c4cccs4)c12)CCC3	5%
CCOC(CNc1ncnc2c1cnn2-c1ccc(C)c(C)c1)OCC	22µg/mL*
Cn1c2c(c(=O)n(C)c1=O)C(c1ccccc1Br)C1=C(CCCC1=O)N2 (stereo not given)	-7%
Cc1ccc(NC(=O)C(=O)Nc2cc3c4c(c2)CCN4C(=O)CC3)cc1Cl	-2%
NC(=O)c1c(NC(=O)/C=C/c2ccc([N+](=O)[O-])s2)sc2c1CCCC2	4.6µg/mL*
O=C(O)CCn1nc(Nc2ccccc2)n(-c2ccccc2)c1=S	-6%
CCOC(=O)N1CCN(C2CC(=O)N(c3ccc(O)cc3)C2=O)CC1 (stereo not given)	1%

Exported in CSV form: entries from further up
SMILES,Mtb growth
C/C(=N\NC(=O)c1cc(C2CC2)[nH]n1)c1ccc(Br)cc1,-2%
O=C1N/C(=N\c2ccccn2)SC1Cc1ccc(Br)cc1 (stereo not given),-3%
Nc1c(C(=O)NCc2ccccc2)sc2nc3c(c(-c4cccs4)c12)CCC3,5%

Back to the main list, repeating the 6 entries before the break.
SMILES	Mtb growth
CCOC(CNc1ncnc2c1cnn2-c1ccc(C)c(C)c1)OCC	22µg/mL*
Cn1c2c(c(=O)n(C)c1=O)C(c1ccccc1Br)C1=C(CCCC1=O)N2 (stereo not given)	-7%
Cc1ccc(NC(=O)C(=O)Nc2cc3c4c(c2)CCN4C(=O)CC3)cc1Cl	-2%
NC(=O)c1c(NC(=O)/C=C/c2ccc([N+](=O)[O-])s2)sc2c1CCCC2	4.6µg/mL*
O=C(O)CCn1nc(Nc2ccccc2)n(-c2ccccc2)c1=S	-6%
CCOC(=O)N1CCN(C2CC(=O)N(c3ccc(O)cc3)C2=O)CC1 (stereo not given)	1%
O=C(Nc1nnc(C2=COCCO2)o1)C1CC1	2%
CCn1c(SCC(=O)Nc2ccc(F)cc2)nc2c(c1=O)SC(C)C2 (stereo not given)	2%
Cc1nc2ccc3nc(NC(=O)c4sc5ccccc5c4Cl)sc3c2s1	3%
COc1ccc(NC(=O)CSc2nc(N)c(NC(=O)c3ccco3)c(=O)[nH]2)cc1	3%
COc1ccc(-n2c(-c3ccccc3)cn3c4c(=O)n(CC(N)=O)c(=O)n(C)c4nc23)cc1Cl	-5%
CCc1ccc2oc3c(c(=O)c2c1)C(c1cccnc1)N(c1cc(C)on1)C3=O (stereo not given)	-5%
O=C1c2oc3ccc(Cl)cc3c(=O)c2C(c2cccnc2)N1Cc1ccccc1 (stereo not given)	-6%
CCOC(=O)c1nn(-c2ccc(Cl)cc2)c(=O)c2c(NC(=O)c3ccc4c(c3)OCO4)scc12	6%
CNC(=O)C(=O)NCC(c1cccs1)N1CCc2ccccc21 (stereo not given)	-7%
COc1ccc(CNC(=O)C(=O)Nc2ccc3c(c2)N(C(C)=O)CCC3)cc1	0%
Brc1cccc2sc(N3CCN(c4ccccc4)CC3)nc12	16%
Cc1cc(C)c(-c2csc(NC(=O)c3ccc(-c4ccccc4)cc3)n2)c(C)c1	11%
Nc1nc(SCC(=O)Nc2cc(C(F)(F)F)ccc2Cl)[nH]c(=O)c1NC(=O)c1ccc(F)c(F)c1	-4%
COc1ccc(CCNC(=O)Cn2cnc3sc(C(=O)Nc4ccccc4)c(C)c3c2=O)cc1OC	-8%
Cc1ccc(-n2nnc3c(=O)n(CC(=O)NCc4ccccc4Cl)cnc32)cc1Cl	-11%
COc1ccc(S(=O)(=O)c2cn(CC(=O)Nc3ccccc3)c3ccc(Cl)cc3c2=O)cc1	5%

Taken from above.
Mtb growth, CCc1ccc2oc3c(c(=O)c2c1)C(c1cccnc1)N(c1cc(C)on1)C3=O (stereo not given) stands at -5%
Mtb growth, COc1ccc(CCNC(=O)Cn2cnc3sc(C(=O)Nc4ccccc4)c(C)c3c2=O)cc1OC stands at -8%
